High-throughput results deposited in PubChem by several laboratories.
Rce1 inhib = yeast Ras-converting enzyme inhibition; yeast membranes, quenched prenylated peptide cleavage fluorescence; AID 2563; calls only; 0.27% of 290,000 active; Q03530;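 active = fall in fluorescence gain of 50% or more versus controls, with final raw signal at or below 3038400; inconclusive = same 50% fall but final raw signal above 3038400; inactive = fall in fluorescence gain under 50%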;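 also: plate controls were neutral control wells for no effect and wells lacking membranes for full effect; tested at 10 µM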
Target sequence (Q03530 whole entry, looked up): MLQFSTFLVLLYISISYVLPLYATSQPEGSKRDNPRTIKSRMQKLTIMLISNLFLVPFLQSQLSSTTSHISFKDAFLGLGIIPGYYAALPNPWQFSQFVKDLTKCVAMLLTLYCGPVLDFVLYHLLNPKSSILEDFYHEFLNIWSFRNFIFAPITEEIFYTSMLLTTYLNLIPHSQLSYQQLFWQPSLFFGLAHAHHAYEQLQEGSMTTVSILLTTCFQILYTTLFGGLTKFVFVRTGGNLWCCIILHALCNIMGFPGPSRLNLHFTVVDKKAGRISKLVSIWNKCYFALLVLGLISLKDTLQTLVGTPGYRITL
eIF4H FP inh = inhibitors of RNA binding by human eIF4H; inhibition, % at 35 µM; AID 2012; Q15056; eIF4H fluorescence polarization binding assay; 0.94% of 290,000 active;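 active = 50% or more with normal probe brightness, or confirmed in later tests; inconclusive = above 50% with abnormal brightness, or retests that disagree; inactive = below 50% or failed in later tests; about a fifth of its hits are not listed in these tables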;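 also: calls also rest on retests at 20 µM and on dose response follow-up; 0% = protein and probe with vehicle and 100% = probe without protein; strong numbers were not always called active; many hits fall short of the cut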
UUG fidelity = alters start codon recognition fidelity in yeast; S. cerevisiae UUG-firefly luciferase reporter, luminescence/redox ratio; 0.13% of 350,000 active; activity score, % at 18.7 µM;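 active = replicate mean at a twofold rise or more, about +100% in these data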;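 also: firefly luciferase made from a UUG start codon reports start codon fidelity; reporter light over untreated wells divided by growth signal over untreated wells; some hits fall short of that in this replicate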
CSC inhib = cancer stem cell inhibition; cancer stem cell-like cells viability, luminescence; inhibition, % at 7.5 µM; 1.1% of 300,000 active; AID 2717;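 active = mean at 75% or more and at least half the replicates too; inconclusive = mean and replicates disagree; tested in HMLE shEcad cells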;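 also: 0% = median of negative and 100% = median of positive control wells; the first replicate is given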
HIV Env fusion = blocks HIV Env-driven cell-cell fusion. HeLa-JRFL Env/CEM21 cell fusion, luciferase. inhibition, % at 12.3 µM. 1.1% of 360,000 active. AID 651610;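 active = mean replicate inhibition score of at least 50 and every replicate individually at or above 50; inconclusive = only one of the two criteria met; inactive = mean below 50 and not all replicates reaching 50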;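 also: 0% = plate neutral controls and 100% = maraviroc near 300 nM; one replicate is shown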
MT1-MMP act inh = inhibitors of human MT1-MMP activation; HT1080 RFP-PRO-GFP cells, GFP/RFP ratio fluorescence, overnight; percent of plate control window, DMSO zero; GFP/RFP ratio change, % at 20 µM; P50281; 0.061% of 360,000 active;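 active = GFP/RFP ratio change of at least 30% with cell ATP level not reduced by more than half and red fluorescence within 50% of control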; also: strong numbers were not always called active
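Material – HT1080 RFP-PRO-GFP cells · Control set – DMSO wells and RFP-L50D-GFP cells · Incubation – overnight cell settling, then overnight compound exposure, 37 °C, 5% CO2 · Compound dosing – single-point 20 µM compound, 1% DMSO · Read-out – GFP/RFP fluorescence ratio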
PABP polyA inh = blocks human PABP binding to poly(A) RNA. P11940. fluorescence polarization. inhibition, % at 35 µM. 1% of 290,000 active. AID 2014;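 active = 50% or more with normal probe brightness, or confirmed in later tests; inconclusive = above 50% with abnormal brightness, or retests that disagree; inactive = below 50% or failed in later tests; about a fifth of its hits are not listed in these tables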;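 also: calls also rest on retests at 20 µM and on dose response follow-up; controls were probe without protein and protein plus probe with vehicle; some compounds called inactive have numbers as strong as hits; many hits fall short of the cut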
MT1-MMP act inh RFP = further read-out of MT1-MMP act inh, marked with its call; RFP signal change, %; measured here: RFP expression control read;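 0 = vehicle wells; hits needed this value within 50% of zero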
The depositor's hits bear a star; i = inactive; ? = inconclusive; . = no result given; + = active, no number; & = joins results of further samples.

1. COC(CNC(=O)C1CCC(CNS(=O)(=O)c2c(C)cc(C)cc2C)CC1)OC (stereo not drawn)
2. CCCN(CCC)C(=O)NC1CC(=O)N(c2ccc(OC)cc2)C1 (stereo not drawn)
3. O=C(NC1CCCC1)C(c1ccc(F)cc1)N(Cc1ccc(Cl)cc1)C(=O)CCl (stereo not drawn)
4. Cc1ccc(-n2nc(C)c3c2OC(N)=C(C#N)C3c2ccco2)cc1 (stereo not drawn)
5. Cc1ccc(N(C)S(=O)(=O)c2csc(C(N)=O)c2)cc1C
6. COCCN(C(=O)CSc1nncn1-c1ccccc1)c1c(N)n(Cc2ccccc2)c(=O)[nH]c1=O
7. O=C(Cc1ccc(-n2c(=O)c3ccccc3n(Cc3ccc(F)cc3)c2=O)cc1)NCC1CCCO1 (stereo not drawn)
8. Cc1cc(S(=O)(=O)NCc2ccccc2)ccc1OCC(=O)NCc1ccccn1

compound no. | 1 | 2 | 3 | 4 | 5 | 6 | 7 | 8
Rce1 inhib | i | i | i | i | i | i | i | i
eIF4H FP inh | 2 | -10 | -2 | -4 | 9 | -11 | -4 | -9
UUG fidelity | 15 | . | 0 | -18 | 5 | . | -14 | -20
CSC inhib | 3 | -16 | -2 | . | 0 | 0 | 1 | -2
HIV Env fusion | 1 | -15 | -53 | . | -1 | 7 | -9 | -1
MT1-MMP act inh | -1 | 3 | 3 | -3 | 2 | 1 | 0 | -1
MT1-MMP act inh RFP | 1 | 2 | 10 | 4 | -6 | 8 | 0 | -1
PABP polyA inh | -1 | -7 | -3 | 7 | 2 | ? | -4 | -4

9. O=C(/C=C/c1ccccc1)Nc1cc(S(=O)(=O)N2CCOCC2)ccc1N1CCOCC1
10. Cc1ccc(NC(=O)C(=O)NCc2ccc(/C=N/NC(=O)c3c(C)nc4ccccn34)o2)cc1
11. COc1ccccc1C(=O)Nc1ccc(S(=O)(=O)N2CCOCC2)cc1
12. COc1cc(Cl)ccc1OCc1cc(C(=O)N(C)Cc2cccc3cnccc23)no1
13. CC(C)[C@H](NC(=O)N1CCn2c1nc1ccccc12)C(=O)NC1CCCCC1
14. CCCCNC(=O)Cc1ccc(C)cc1
15. Cc1sc(NC(=O)c2cc(-c3ccc(Cl)cc3)nc3ccccc23)c(C(N)=O)c1C
16. O=C(NCc1nnc2c(C(F)(F)F)cc(Cl)cn12)c1cccnc1

compound no. | 9 | 10 | 11 | 12 | 13 | 14 | 15 | 16
Rce1 inhib | . | i | i | . | i | i | i | i
eIF4H FP inh | . | -18 | 7 | -6 | -6 | -4 | 9 | 4
UUG fidelity | -13 | -20 | -6 | -2 | -2 | . | . | -5
CSC inhib | . | -11 | -13 | 3 | -7 | -4 | 47 | -3
HIV Env fusion | 1 | . | . | -15 | 1 | 14 | . | -5
MT1-MMP act inh | -2 | -5 | 8 | -7 | 6 | 5 | -7 | -1
MT1-MMP act inh RFP | -2 | -1 | -1 | -19 | 6 | 7 | -4 | 4
PABP polyA inh | . | -6 | -5 | -2 | 4 | 7 | 7 | 0

17. N/C(=N\OC(=O)c1cc(Cl)ccc1Cl)c1cccnc1
18. COCCNC(=O)CSc1nc2cc3c(cc2c(=O)n1CCCC(=O)NCCc1ccc(OC)c(OC)c1)OCO3
19. Cn1c(=O)c([N+](=O)[O-])c(NCc2ccccc2)c2ccccc21
20. Cc1cccc(C)c1NC(=O)COC(=O)/C=C/c1ccc(S(=O)(=O)N2CCOCC2)cc1
21. O=C(COC(=O)c1cccc(S(=O)(=O)N2CCCC2)c1)Nc1ccccc1
22. Cc1ccc(Nc2n[nH]c(C)c2[N+](=O)[O-])cc1C
23. COc1ccc(C(=O)N2CCN(S(=O)(=O)c3ccccc3)CC2)c(OC)c1
24. CN1CCN(Cc2nc3ccccc3n2C)CC1CCO (stereo not drawn)

compound no. | 17 | 18 | 19 | 20 | 21 | 22 | 23 | 24
Rce1 inhib | i | i | i | . | i | i | i | i
eIF4H FP inh | -19 | -2 | -7 | . | 10 | -11 | -8 | 7
UUG fidelity | -22 | 13 | -8 | 4 | . | . | -14 | -26
CSC inhib | -9 | -3 | -2 | -2 | -2 | 8 | -9 | -6
HIV Env fusion | . | -20 | . | . | 9 | -115 | -30 | -3
MT1-MMP act inh | -8 | 3 | -1 | -2 | 1 | 3 | 4 | 0
MT1-MMP act inh RFP | -5 | 0 | -3 | 3 | -1 | 0 | 4 | 7
PABP polyA inh | -4 | -5 | 14 | . | -3 | -12 | 9 | -4

25. CC(C)C(c1nnnn1CCc1ccccc1)N1CCOCC1 (stereo not drawn)
26. COc1ccc(S(=O)(=O)N2CCC(C(=O)N[C@@H](C)C(=O)NCc3cccnc3)CC2)cc1
27. COc1cccc(-c2ccc(NC(=O)C3CCCN(Cc4cnc(C)n4C)C3)cc2)c1 (stereo not drawn)
28. COc1ccc(CNC(=O)C(NS(=O)(=O)c2ccc3c(c2)CCCN3C(C)=O)C(C)C)cc1 (stereo not drawn)
29. COc1ccc(-n2nnnc2SCC(=O)c2cc3ccccc3o2)cc1
30. CN(C)S(=O)(=O)N1CCN(CC(O)COc2ccc(C(=O)c3ccccc3)cc2)CC1 (stereo not drawn)
31. CC1(C)CN2C(=O)c3ccccc3C2(C)S1 (stereo not drawn)
32. Cc1ccc(-c2cccc(C(=O)NCCc3ccccc3)n2)c2ccccc12

compound no. | 25 | 26 | 27 | 28 | 29 | 30 | 31 | 32
Rce1 inhib | i | . | i | . | i | i | i | i
eIF4H FP inh | 2 | . | 0 | -1 | 29 | -6 | -2 | -11
UUG fidelity | -10 | -11 | -4 | -5 | -16 | -7 | . | -14
CSC inhib | . | . | -15 | . | 22 | -17 | -7 | 38
HIV Env fusion | . | -15 | 6 | -42 | . | . | -18 | 25
MT1-MMP act inh | -4 | 0 | 6 | 0 | -16 | 3 | 1 | -5
MT1-MMP act inh RFP | 0 | 5 | -1 | -2 | 1 | -15 | 5 | -8
PABP polyA inh | 23 | . | -8 | 0 | 29 | -8 | -4 | 3

33. COc1ccc(S(=O)(=O)N(C)C[C@H]2Oc3ccc(NC(=O)NC4CCCCC4)cc3C(=O)N([C@H](C)CO)C[C@@H]2C)cc1
34. Cc1ccc2c(c1)C1CN(C)CCC1N2S(=O)(=O)c1ccc(C#N)cc1 (stereo not drawn)
35. CC(C)CCOP(=O)(c1ccc(N(C)C)cc1)C(O)c1ccccc1 (stereo not drawn)
36. COC(=O)[C@@]1(Cc2ccc(OC)cc2)[C@H]2c3cc(C(=O)N4CCCC4)n(CCn4cc([N+](=O)[O-])nc4C)c3C[C@H]2CN1C(=O)c1ccccc1
37. CC(CCc1ccccc1)NC(=O)c1ccccc1Cl (stereo not drawn)
38. COc1ccccc1-c1cc(=O)c2c(O)ccc([N+](=O)[O-])c2o1
39. COc1ccc(S(=O)(=O)N2CCCC2CNC(=O)C(=O)NCc2ccccn2)cc1 (stereo not drawn)
40. COc1ccccc1-n1ccnc(SCC(=O)NC2CCCC2)c1=O

compound no. | 33 | 34 | 35 | 36 | 37 | 38 | 39 | 40
Rce1 inhib | . | . | i | i | i | i | i | i
eIF4H FP inh | . | . | 1 | -4 | 0 | 0 | . | .
UUG fidelity | -14&-7 | -9 | . | -21 | -10 | 0 | -7 | .
CSC inhib | 1 | . | -9 | -7 | 1 | -10 | -13 | 7
HIV Env fusion | -13 | 0 | ? | -119 | -1 | 0 | -13 | 2
MT1-MMP act inh | 0 | -7 | -1 | -3 | 2 | -4 | 4 | 2
MT1-MMP act inh RFP | -3 | 0 | 0 | -3 | 2 | -5 | 1 | 2
PABP polyA inh | . | . | -2 | -8 | 16 | 3 | . | .

41. N/C(=N\c1nc2ccccc2o1)NC(=O)c1ccc([N+](=O)[O-])cc1
42. CCOc1ccc(CNC(=O)C(C)n2ccc3cc(S(=O)(=O)N4CCCC4)ccc32)cc1 (stereo not drawn)
43. O=C(CCCn1c(=O)oc2ccccc21)Nc1ccccc1
44. COc1ccc(CNC(=O)c2[nH]c(C(F)(F)F)nc2-c2ccccc2)cc1OC
45. Clc1nc(N2CCOCC2)ncc1Br
46. Cc1nn(C)cc1CNC(=O)Nc1ccc(Br)cc1Cl
47. COc1cc(C(=O)Nc2scc(-c3ccc(C)cc3)c2C(=O)O)cc(OC)c1OC
48. Cc1ccc(N2C=Nc3ccc(C)c4nc(C)cc2c34)cc1

compound no. | 41 | 42 | 43 | 44 | 45 | 46 | 47 | 48
Rce1 inhib | i | i | . | . | i | i | i | i
eIF4H FP inh | 0 | -3 | . | . | 6 | -8 | -4 | -1
UUG fidelity | -6 | -8 | -8 | -8 | . | 4 | -15 | .
CSC inhib | 6 | 12 | . | . | -16 | -22 | 8 | -8
HIV Env fusion | -6 | -7 | -7 | -10 | -7 | -79 | 4 | .
MT1-MMP act inh | 3 | -1 | -1 | 4 | -1 | 4 | 6 | -4
MT1-MMP act inh RFP | 0 | -5 | 2 | -1 | 3 | 3 | 1 | -2
PABP polyA inh | -8 | 3 | . | . | 0 | 1 | 13 | 2

Retrieved by compound from the entries so far:
43. O=C(CCCn1c(=O)oc2ccccc21)Nc1ccccc1
42. CCOc1ccc(CNC(=O)C(C)n2ccc3cc(S(=O)(=O)N4CCCC4)ccc32)cc1 (stereo not drawn)
47. COc1cc(C(=O)Nc2scc(-c3ccc(C)cc3)c2C(=O)O)cc(OC)c1OC
48. Cc1ccc(N2C=Nc3ccc(C)c4nc(C)cc2c34)cc1

compound no. | 43 | 42 | 47 | 48
Rce1 inhib | . | i | i | i
eIF4H FP inh | . | -3 | -4 | -1
UUG fidelity | -8 | -8 | -15 | .
CSC inhib | . | 12 | 8 | -8
HIV Env fusion | -7 | -7 | 4 | .
MT1-MMP act inh | -1 | -1 | 6 | -4
MT1-MMP act inh RFP | 2 | -5 | 1 | -2
PABP polyA inh | . | 3 | 13 | 2

(list continues)
49. O=C1C2CCCN2C(c2ccccc2F)N1c1cccc(Cl)c1 (stereo not drawn)
50. NC(=O)c1ccc[n+](CC(=O)c2ccc(F)cc2)c1
51. C=CCOC(=O)CCC(=O)Nc1cccc2ccccc12
52. COc1ccc(/C=N/NC(=O)c2ccccc2OCc2ccccc2)c(OC)c1
53. O=C(NCCN1CCOCC1)c1cc(-c2ccco2)on1
54. CCOc1ccc(C2C(C(=O)OC)=CN(C(C)c3ccccc3)C=C2C(=O)OC)cc1 (stereo not drawn)
55. C=CCn1c(C)cc(C(=O)CSc2nnc(C3CC3)n2C2CC2)c1C
56. Cc1cc(NC(=O)CSc2nc(N)c(NC(=O)c3ccco3)c(=O)[nH]2)no1
57. O=C(/C=C/Nc1ccc(F)cc1F)c1cccs1
58. O=C1OCC2=C1C(c1ccc(F)cc1)c1cc3c(cc1N2)OCCO3 (stereo not drawn)
59. CCN(C(=O)CSc1nc(-c2ccccc2)cn1N)c1c(N)n(Cc2ccccc2)c(=O)[nH]c1=O

compound no. | 49 | 50 | 51 | 52 | 53 | 54 | 55 | 56 | 57 | 58 | 59
Rce1 inhib | i | i | i | i | i | + | . | . | i | . | i
eIF4H FP inh | -10 | -8 | 4 | 2 | -7 | -6 | . | 5 | -3 | -1 | .
UUG fidelity | -8 | . | -23 | -12 | -8 | -4 | -25 | -20 | -56 | . | 1
CSC inhib | -13 | -1 | 0 | 14 | . | 7 | . | -6 | 3 | . | -1
HIV Env fusion | 7 | -5 | . | 6 | -97 | 6 | -19 | -23 | -68 | -67 | -26
MT1-MMP act inh | -5 | 0 | 0 | -4 | -1 | -10 | -2 | 1 | -6 | 10 | 3
MT1-MMP act inh RFP | 4 | 3 | 5 | -6 | 1 | -8 | 0 | 3 | 3 | -3 | 3
PABP polyA inh | 2 | 5 | -7 | -1 | 8 | -4 | . | 2 | 3 | 5 | .

The list is partial (hit frequency here may not be typical).
